H5N1 antiviral – antiviral screen in MDCK cells, H5N1 avian flu. cytopathic effect, luminescence, 72 h; stronger effect = higher value; no value below 0 was filed and about half of the inactive calls have no number; reference of the scale not given here. inhibition, % at 50 µM. 0.07% of 96,000 active; in the data active means inhibition above about 25%
* marks the source's active call; other numbers are inactive results; i = inactive. These rows are one share of the data, so the mix of outcomes need not match the whole.

Start of the data: the first three entries as a preview:
SMILES	H5N1 antiviral
Cn1cnnc1SC(C(=O)c1ccccc1)c1ccccc1 (stereo unspecified)	i
Oc1c(C=NCc2ccc(F)cc2)[nH]c2ccc(Br)c(Cl)c12	0.6
CCOC(=O)c1c(NC(=O)C2C3CCC(O3)C2C(=O)O)sc(C)c1-c1ccc(F)cc1 (stereo unspecified)	i

The list itself, repeating the preview:
SMILES	H5N1 antiviral
Cn1cnnc1SC(C(=O)c1ccccc1)c1ccccc1 (stereo unspecified)	i
Oc1c(C=NCc2ccc(F)cc2)[nH]c2ccc(Br)c(Cl)c12	0.6
CCOC(=O)c1c(NC(=O)C2C3CCC(O3)C2C(=O)O)sc(C)c1-c1ccc(F)cc1 (stereo unspecified)	i
Cc1n(CC(O)COCc2ccccc2)c2ccccc2[n+]1C (stereo unspecified)	0.7
NC(=O)CN1CCN(C(=O)NC2CCCCC2)CC1	1.2
CC1CCN(c2nc3c(c(=O)n(C)c(=O)n3C)n2CCSc2nc3ccccc3o2)CC1	1.1
Cc1cc(C)c2c(n1)sc1c(=O)n(Cc3ccccc3Cl)nnc12	0.6
Cc1csc(SCC(=O)NCc2cccs2)n1	2.0
O=C(OCC(=O)N1CCN(C(=O)COC(=O)c2ccncc2)CC1)c1ccncc1	i
COC(=O)c1ccc2c(=O)[nH]c(CN3c4ccccc4CC3C)nc2c1 (stereo unspecified)	i
CC(C)N(CC#CCC1(O)c2ccccc2-c2ccccc21)CCO	i
CCN1C(c2ccccc2)C(C)C(=O)C(C)C1c1ccccc1 (stereo unspecified)	i

Four entries from above, as labelled records.
Compound: Oc1c(C=NCc2ccc(F)cc2)[nH]c2ccc(Br)c(Cl)c12
  H5N1 antiviral: 0.6
Compound: CCOC(=O)c1c(NC(=O)C2C3CCC(O3)C2C(=O)O)sc(C)c1-c1ccc(F)cc1 (stereo unspecified)
  H5N1 antiviral: i
Compound: Cc1n(CC(O)COCc2ccccc2)c2ccccc2[n+]1C (stereo unspecified)
  H5N1 antiviral: 0.7
Compound: NC(=O)CN1CCN(C(=O)NC2CCCCC2)CC1
  H5N1 antiviral: 1.2

Further entries follow.
SMILES	H5N1 antiviral
COC(=O)c1cc(-c2ccccc2)n(CC(=O)O)c1C	i
CCCC(=O)Nc1ccc(-c2nc3cc(C)c(C)cc3o2)c(O)c1	i
Cc1cc(=O)n2c3c(cccc13)CCC2	i
Nn1c(SCC(=O)N2CCOCC2)nnc1-c1ccco1	1.8
CCc1nnc(NC(=O)c2cccc(NC(=O)C(C)C)c2)s1	0.2
CCOc1ccccc1CNS(=O)(=O)c1ccc2c(c1)oc(=O)n2C	1.9
O=C1NC(c2ccccn2)Nc2sc3c(c21)CCC3 (stereo unspecified)	2.4
COC(=O)c1c(NC(=O)c2ccco2)sc(C(=O)Nc2ccc(F)cc2)c1C	i
Cc1cc(NC(=O)CCCC(=O)Nc2ccc(F)cc2)no1	i
CCOC(=O)N1CCN(C(=O)CSc2ccc(Cl)cc2)CC1	i
NS(=O)(=O)c1ccc(NCc2cc(Cl)ccc2OCc2ccccc2F)cc1	0.6
CC12Cc3ccc4ccccc4c3C=C1C[N+](C)(C)C2 (stereo unspecified)	i
CCC(Oc1ccccc1)C(=O)N1CCN(C(=O)C(CC)Oc2ccccc2)CC1 (stereo unspecified)	5.0
O=C(NCCCN1CCOCC1)C1(c2ccccc2)CCOCC1	0.7
CO/N=C/c1ccc(Sc2ccccc2)c([N+](=O)[O-])c1	i
CC(C)Cc1cc(C(=O)N2CCN(C(c3ccccc3)c3ccccc3)CC2)no1	0.1
COc1ccc(-n2c(C)nc3cc(C(=O)NCc4ccco4)ccc32)cc1	0.3
COc1ccc(N2CCN(c3ncnc4nc[nH]c34)CC2)cc1	1.9
CCOc1ccc(NC(=O)CSc2nnc(-c3ccco3)n2C)cc1	i
O=C(Nc1cc2c(cc1Cl)OCCCO2)c1ccccc1	5.0
O=C(CCC(=O)OCC(=O)c1ccc(Br)cc1)NC1CCCCC1	0.3
CCN(C1CCCCC1)S(=O)(=O)c1cn(C)c(=O)n(C)c1=O	0.9
COc1ccc(CN2CN(c3ccc(Cl)cc3)C(=O)N(n3cnnc3)C2)cc1	i
CCc1cc2c(SCC(=O)C(C#N)=C3N(C)c4ccccc4N3C)ncnc2s1	1.3
Cc1cc(C(=O)NNC(=S)NC(C)c2ccccc2)c2ccccc2n1 (stereo unspecified)	i
CCOC(=O)c1[nH]c2ccccc2c1NC(=O)c1ccco1	0.7
Cc1cc(C)c2c3c(sc2n1)C(c1cccc(F)c1)C(C#N)=C(N)O3 (stereo unspecified)	i
CC(NC(=O)c1ccc2c(c1)OCO2)C1CCCO1 (stereo unspecified)	i
COC(=O)CC/C(O)=C1/C(=N)CC(C)(C)CC1=O	0.7
CCCCC(=O)Nc1c(O)c2ccccc2[nH]c1=O	i
CC(C)CC(C(=O)NC(=O)NCc1ccccc1)N1C(=O)c2ccccc2C1=O (stereo unspecified)	0.0
COc1ccc(NC(=O)CNS(=O)(=O)c2cccs2)cc1	i
Cc1[nH]n(-c2ccccc2)c(=O)c1N=Nc1nccs1	0.1
O=C1C2=C(SCCS2)C(=O)N1CCCO	i
CCCOc1c(OC)cccc1C1CC(=O)Nc2cc3c(cc21)OCO3 (stereo unspecified)	i
Cc1ccc(C(=O)N2CCN(c3cccc(Cl)c3)CC2)cc1C	i

Looked up by structure from above (4):
SMILES	H5N1 antiviral
CC1CCN(c2nc3c(c(=O)n(C)c(=O)n3C)n2CCSc2nc3ccccc3o2)CC1	1.1
O=C(OCC(=O)N1CCN(C(=O)COC(=O)c2ccncc2)CC1)c1ccncc1	i
O=C1NC(c2ccccn2)Nc2sc3c(c21)CCC3 (stereo unspecified)	2.4
CCOC(=O)c1c(NC(=O)C2C3CCC(O3)C2C(=O)O)sc(C)c1-c1ccc(F)cc1 (stereo unspecified)	i

(further entries)
SMILES	H5N1 antiviral
Cc1cccc(-n2ccnc2SCC(=O)Nc2cc(C)on2)c1	0.2
Cc1ccc(C(=O)COC(=O)c2cccc(NC(=O)c3ccc([N+](=O)[O-])cc3[N+](=O)[O-])c2)cc1	i
Nc1nc(NC(=O)c2cccc(S(=O)(=O)N3CCCCCC3)c2)nc(-c2ccccc2)n1	3.5
COC(=O)C(NC(C)=O)(Nc1ccc(Br)cn1)C(F)(F)F (stereo unspecified)	i
CCOC(=O)/C(C#N)=C/Nc1ccccc1OC	0.5
Cc1ccc(OCc2nc(-c3ccc(Cl)cc3)n[nH]2)cc1	0.5
Cc1cc(C)n2nc(-c3ccc(F)cc3)nc2n1	i
O=C1CC(c2cccc([N+](=O)[O-])c2)c2c(ccc3ccccc23)N1 (stereo unspecified)	3.7
COc1cccc(/C=N/n2c(SC)nnc2-c2ccccc2)c1OC	0.6
CCN1CCN(c2c(Cl)cccc2NC(=O)c2ccco2)CC1	i
Cc1ccc(NC(=O)Cn2nc(C)c3ccccc3c2=O)c(C)c1	0.5
NC(=O)c1ccc(C(F)(F)F)n(Cc2cccc(Cl)c2)c1=O	1.5
CCOC(=O)c1c2ccc(OCC(=O)N/N=C/c3ccc(C)cc3)cc2n2ccccc12	i
Cc1cc(NC(=O)CSc2nnc(COc3cccc(C)c3C)n2C)no1	0.4
COc1ccc(NC(=O)Cc2nnc(SCC(=O)Nc3cc(C)ccc3OC)n2C)cc1	1.2
CC1(C)C/C(=C(/C#N)C(N)=O)CCO1	i
O=c1c2[nH]c3ccc(F)cc3c2ncn1C1CCCCC1	i
Cc1ccccc1CN(c1ccc(C(=O)N2CCc3ccccc3C2)cc1)S(C)(=O)=O	0.7
CCOC(=O)Nc1ccc(S(=O)(=O)Nc2nc(C)cc(C)n2)cc1	0.2
O=C(Nc1ccc(Cl)cc1)NC1CCCC1Cc1ccco1 (stereo unspecified)	1.1
O=C(Cn1c(=O)oc2ccccc21)Nc1nnc(N2CCCCCC2)s1	0.8
CN(C(=O)C1CCCO1)c1nnc(-c2cnccn2)s1 (stereo unspecified)	i
c1cc2c3c(cccc3c1)NC1(CCCCC1)N2	0.2
COC(=O)CCc1c(C)nn(-c2ccccc2)c1C	0.2
Cn1c(=O)c(NCCO)c2c3c(cccc31)C(=O)c1ccccc1-2	3.5
CCn1c(NC(=S)Nc2ccccc2)nc2ccccc21	i
COCCn1c(SCC(=O)Nc2ncc(C)s2)nc2sc3c(c2c1=O)CCC3	0.0
CCOc1ccc(C2/C(=C(/O)c3ccc(F)cc3)C(=O)C(=O)N2CCCN(C)C)cc1 (stereo unspecified)	1.9
Cc1noc(C)c1C(=O)OCC(=O)c1cc(C)n(Cc2ccccc2Cl)c1C	i
Cc1[nH]c2ccc(OCc3ccccc3)cc2c1CCN1C(=O)OC(C)(C)C1(C)O (stereo unspecified)	4.5
Cc1ccc(S(=O)(=O)Nc2ccc3ncccc3c2)cc1	1.5
O=C(O)C1CCCCC1C(=O)Nc1ccccc1Cl (stereo unspecified)	i
O=C1C2C3CCC(C3)C2C(=O)N1CNc1ccc(F)cc1 (stereo unspecified)	0.3
O=[n+]1cc(-c2ccc(F)cc2)n([O-])c2c1CCC2	i
O=C(Nc1ccc(NC(=O)c2cccs2)cn1)c1ccco1	0.7
COc1ccc(CCNC(=O)NC23CC4CC(CC(C4)C2)C3)cc1	0.2
COc1ccc(NC(=O)CSc2nc(C)c3c(c2C#N)CCCC3)cc1	2.4
COc1ccc2nc(NC(=O)CSc3nnc(-c4ccoc4C)n3C)sc2c1	3.1
CNC(=O)NC(=O)CSc1nnc(C(F)(F)F)n1C	i
O=C(Nc1ccccc1C(=O)O)c1cccc(NC(=O)c2ccc(Br)o2)c1	i
Oc1ccccc1C1N=C(c2ccccc2)NC(c2ccccc2)=N1	i
Cc1ccccc1C(=O)NC1CCS(=O)(=O)C1 (stereo unspecified)	0.5
CC(C)Nc1nc(NC(C)C)nc(N(C)n2cnnc2)n1	i
COc1ccc(C2=NC(C(F)(F)F)(C(F)(F)F)c3c(n(C)c(=O)n(C)c3=O)N2)cc1	1.7
CC(=O)c1ccc(NC(=O)c2ccn[nH]2)cc1	i
C=CCn1cc(C(=O)NCC2CCCO2)c(=O)c2cc(S(=O)(=O)N3CCCCCC3)ccc21 (stereo unspecified)	i
Nc1nnc(CCCCc2cccs2)o1	i
c1ccc(-c2[nH]ncc2-c2nc3ccccc3[nH]2)cc1	0.1
NC(=O)CSc1nc(-c2ccccc2Cl)ns1	i
O=C(O)c1ccc(-c2ccccc2C(F)(F)F)o1	0.8
CSc1ccccc1NC(=O)c1noc2c1CCC2	i
Cc1ccc(N2C(=O)CC(Cn3nc(C)cc3C)C2=O)cc1 (stereo unspecified)	i
CC(=O)C1=C(O)C(=O)N(Cc2ccco2)C1c1ccc2c(c1)OCO2 (stereo unspecified)	i
CCOC(=O)C1CCN(Cc2cnc(Oc3ccc(C(C)(C)C)cc3)s2)CC1	1.1
NC(=O)CCS(=O)(=O)c1ccccc1	0.5
COc1ccc(C(=O)NCC(=O)OCC(=O)Nc2c(C)n(C)n(-c3ccccc3)c2=O)cc1	i
O=C(c1cn(-c2ccccc2)nc1-c1ccccc1)n1nnc2ccccc21	i
COC(=O)c1cc(NC(=O)CSc2nc(C)cc(=O)[nH]2)cc(C(=O)OC)c1	4.0
CCOC(=O)C1CCN(C(=O)C(=O)N2CCC(C(=O)OCC)CC2)CC1	0.1
Cc1cc(NC(=O)c2cc(-c3cccs3)on2)no1	i

Some values from the entries so far.
H5N1 antiviral result of `COC(=O)CC/C(O)=C1/C(=N)CC(C)(C)CC1=O` is entered as 0.7
H5N1 antiviral result of `Cc1ccc(S(=O)(=O)Nc2ccc3ncccc3c2)cc1` is entered as 1.5
H5N1 antiviral result of `CCc1nnc(NC(=O)c2cccc(NC(=O)C(C)C)c2)s1` is entered as 0.2
H5N1 antiviral result of `CCc1cc2c(SCC(=O)C(C#N)=C3N(C)c4ccccc4N3C)ncnc2s1` is entered as 1.3
H5N1 antiviral result of `c1cc2c3c(cccc3c1)NC1(CCCCC1)N2` is entered as 0.2

The listing continues.
SMILES	H5N1 antiviral
Cc1csc(=N)n1-c1ccc(Cl)cc1	i
CN(C)CCCNC(=O)c1cc(Br)ccc1Cl	0.1
O=C(CSc1nc2ccccc2c(=O)[nH]1)N1CCCCCC1	i
CCNC(=O)NC(=O)COc1ccccc1C#N	0.7
CCC(C)n1cnc2c(c1=O)c1nc3ccccc3nc1n2Cc1ccc2c(c1)OCO2 (stereo unspecified)	i
CCc1ccccc1NC(=O)CSc1nnc([C@@H]2CCCN2C(=O)OC(C)(C)C)o1	1.3
CC(=O)c1cccc(NC(=O)c2oc(C)nc2C)c1	i
O=C1c2ccccc2C(=Nc2ccccc2)C1c1cccc(Br)c1 (stereo unspecified)	i
CN(NS(=O)(=O)c1ccccc1)c1nc2ccccc2nc1C(F)(F)F	i
Cc1cc(N2CCOCC2)nc(SCC(=O)c2ccc(Cl)cc2)n1	i
O=C(Nc1ccccc1Br)C1CCC(=O)N1Cc1ccccc1Cl (stereo unspecified)	i
CCOC(=O)c1ccccc1NC(=O)c1cccc2c1C(=O)N(C1CCN(C(=O)OCC)CC1)C2	i
O=C1CC(N2CCN(c3nc4ccccc4s3)CC2)C(=O)N1Cc1cccs1 (stereo unspecified)	1.2
O=C(c1ccc2c(c1)N(Cc1ccccc1)C(=O)c1ccccc1S2)N1CCCC1	i
CC1=CC(C)(C)Nc2ccc(OC(=O)c3cccnc3)cc21	0.3
CCOC(=O)Cn1c(=N)n(Cc2ccccc2F)c2ccccc21	i
CCCc1ccc(C2C3=C(CC(C)(C)CC3=O)NC3=C2C(=O)c2ccccc23)cc1 (stereo unspecified)	7.4
CC(C)CC(=O)N1CCC(N2CCN(c3ccccc3)CC2)CC1	0.3
O=C(Nc1ccc(CN2CCCCC2)cc1)c1ccc(Br)o1	i
CCCc1nn(C)c2c1C(c1ccncc1)C(C#N)=C(N)O2 (stereo unspecified)	4.6
Cc1cc(C)c(NC(=O)CN2C(=O)NC3(CCOc4ccccc43)C2=O)c(C)c1 (stereo unspecified)	0.8
O=C(Nc1ccccc1F)c1ccc(CNS(=O)(=O)c2cccc(C(F)(F)F)c2)cc1	i
Cc1ccc(CNC(=O)c2cnc(-c3ccccn3)nc2C(F)(F)F)cc1	i
CC(C)(C)c1cc[n+](/C(C(=S)NC2CC2)=C(/[O-])c2ccc(Cl)s2)cc1	i
Cc1ccc(C)c(N2CCN(C(=O)CCCCn3c(=O)[nH]c4ccccc4c3=O)CC2)c1	1.9
CCCCc1nc(NCc2ccccc2)c(C#N)c2c1COC(C)(C)C2	0.5
CN(CC(=O)O/N=C(\N)c1ccccn1)S(=O)(=O)c1cc(Cl)ccc1Cl	0.3
COc1ccc(-c2n[nH]c(C)c2-c2ccc(Cl)cc2)c(O)c1OC	i
